Calb biofilm kill – clotrimazole potentiators killing C. albicans biofilm, primary screen, 4-compound mixtures; hit rate 0.02% among 120,000; C. albicans biofilm persisters + clotrimazole, fluorescence viability; primary screen in compound mixtures of four per well; inhibition, % at 7.6 µM; AID 1242, 2008;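 active = inhibition above 30.3% in the primary screen of four-compound pools, then above 30% when the compound was retested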;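 also: compounds exposed to preformed 24 h biofilms for 48 h; the number belongs to the whole pool; some results filed as inactive read as strong as hits; inactives centre near 12; 0% = biofilm with clotrimazole alone and 100% = kill control; retested singly at about 60 µM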
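Test system: C. albicans CAF4-2 wild-type biofilms; buffer or medium: RPMI/MOPS medium, pH 7.0; schedule: 24 h biofilm formation, then 48 h compound exposure, 37 °C; detection: Alamar Blue fluorescence; measure: percent inhibition of biofilm viability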
* marks the source's active call; other numbers are inactive results. An excerpt; rates above refer to the full screens.

SMILES	Calb biofilm kill
COC1(OC)C(/C=C/c2ccc(C)cc2)C(C#N)(C#N)C1(OC)OC (stereo not given)	18
O=C1C(Cl)=C(Nc2ccccc2O)C(=O)N1CCc1ccccc1	12
COc1ccc(C)cc1NC(=O)CSc1nnc(CC(=O)Nc2ccccc2F)n1C	9
COc1cc(N/C=C2\CC(=O)NC(C)=C2C#N)cc(OC)c1OC	14
CCCCc1c(O)nc2ccccn2c1=O	8
CCOc1ccc2c(=O)c(-c3ccc4c(c3)OCCCO4)c(C)oc2c1	-1
COc1cc2c(cc1OC)C1(CCCC1)CNC2C (stereo not given)	14
CCOc1ccc(OCCCCOc2ccccc2C(C)=O)cc1	16
Cc1nnc(NC(=O)c2ccc3ccccc3n2)s1	12
COc1cccc(CC(NC(C)=O)C(=O)NC2CCN(c3nnnn3-c3ccccc3)CC2)c1OC (stereo not given)	16
Cc1csc(NC(=O)c2ccc(S(C)(=O)=O)cc2)n1	-5
O=C(Nc1cc(SCCO)cc([N+](=O)[O-])c1)c1ccc(Br)o1	9
O=C(Cc1ccccc1)NCC(=O)N/N=C/c1ccc(Cl)cc1	13
COc1ccc(C(=O)NCC(=O)OCC(=O)Nc2cc([N+](=O)[O-])ccc2F)cc1	6
COc1cc2cc(CN(CCc3cccc(C)c3)C(=S)NCCCN(C)C)c(=O)[nH]c2cc1OC	20
CN1CCN(c2ccccc2NC(=O)c2ccc(F)cc2)CC1	25
O=C(CCc1nnc(CCCCc2ccccc2)o1)N1CCCCC1CCO (stereo not given)	20
CCCCNC(=O)N1CCN(Cc2ccc(F)cc2)CC1	8
CN(C(=O)Cc1ccccc1)n1cnnc1	4
Cc1cccc(C)c1NC(=O)COC(=O)c1ccccc1Nc1ccccc1	-3

Single values from the list:
`CCCCNC(=O)N1CCN(Cc2ccc(F)cc2)CC1` in Calb biofilm kill = 8
`CCOc1ccc2c(=O)c(-c3ccc4c(c3)OCCCO4)c(C)oc2c1` in Calb biofilm kill = -1
`CCOc1ccc(OCCCCOc2ccccc2C(C)=O)cc1` in Calb biofilm kill = 16
`COc1ccc(C(=O)NCC(=O)OCC(=O)Nc2cc([N+](=O)[O-])ccc2F)cc1` in Calb biofilm kill = 6

New compounds follow:
SMILES	Calb biofilm kill
Cn1c(=O)c(Nc2ccc(Cl)cc2)c2c3c(cccc31)C(=O)c1ccccc1-2	8
CCCn1c(-c2cccc([N+](=O)[O-])c2)nc2c1c(=O)[nH]c(=O)n2Cc1ccccc1	12
CN1CCN(/N=C2/C(=O)Nc3ccc([N+](=O)[O-])cc32)CC1	10
O=C(CN1C(=O)C(=O)c2ccccc21)NC1CCCCC1	-5
Nc1n[nH]c(N)c1N=Nc1ccc(Cl)cc1	16
O=[N+]([O-])c1cccc(-c2cc(C(F)(F)F)n3nc(-c4ccccc4)cc3n2)c1	22
Oc1ccccc1C1CC(c2cccs2)=NC(c2ccc(Cl)cc2)N1 (stereo not given)	24
O=C(CSc1nccn1-c1ccccc1)NCc1ccc(F)cc1	8
Cc1ccc(S(=O)(=O)NCC(=O)N2CCN(c3ccccc3F)CC2)cc1	17
O=C(Nc1ccccc1C(=O)N1CCCCC1)NC1CCCCC1	2
COc1cccc(OC)c1C(=O)NC(=S)Nc1ccc2c(c1)OCCO2	22
Cc1ccc(NC(=O)CN2C(=O)NC(C)(CCc3ccccc3)C2=O)cc1 (stereo not given)	13
Cc1ccc(/C=C/c2nc3ccccc3[nH]2)o1	9
COc1ccc(S(=O)(=O)Nc2cccnc2)c(Cl)c1Cl	8
CN(/N=C/c1ccc(Cl)cc1)c1ncc(Cl)cc1C(F)(F)F	13
COc1cccc(NC(=S)N(CCCN2CCOCC2)Cc2cn(C)c3ccccc23)c1	19
Cc1ccccc1CC1(CO)CCCN(C(=O)c2cccc(Cl)c2)C1 (stereo not given)	20
CCOC(=O)C1(CC/C(C)=N\NC(N)=O)CC(C)OC1=O (stereo not given)	12
CCN(C(=O)c1cccc(Br)c1)c1ccccc1	12
Cc1nnc(SCC(=O)N2c3ccccc3C(C)(c3ccccc3)CC2(C)C)s1 (stereo not given)	14
CC(C)Oc1ccc2c(=O)c(-c3ccccc3)coc2c1	6
COc1cccc(NC(=O)Cn2c(CCC(=O)O)ccc2-c2cccs2)c1	23
O=C(CN(CCO)c1ccccc1)Nc1ccc(Cl)c(S(=O)(=O)N2CCOCC2)c1	12
CC(=O)Nc1nnc(COc2ccc(Cl)cc2)s1	5
N#CC1=C(N)OC2=C(CCc3ccccc32)C1c1ccccc1Cl (stereo not given)	2
CN1c2ccccc2C(C)(C)C12CC(c1ccc(S(=O)(=O)N3CCCCC3)cc1)=NO2 (stereo not given)	1
COc1ccc(/C=N/NC(=S)SC)cc1OC	4
O=C(NC1CCS(=O)(=O)C1)/C(=C\c1ccco1)NC(=O)c1ccccc1 (stereo not given)	11
O=C(NC1CCCC1)C1CCN(C(=O)c2ccc(-c3ccccc3)cc2)CC1	28
Cc1ccc(NN2C(=O)C=CC2=O)cc1	3
O=C(NCC1CCCO1)c1ccc(NS(=O)(=O)c2cccc([N+](=O)[O-])c2)cc1 (stereo not given)	9
O=C(Nc1ccccc1F)c1cc2c(s1)-c1ccccc1S(=O)(=O)C2	24
CCOC(=O)N1CCc2c(sc3nc(SC(C)C)n(N)c(=O)c23)C1	21
CC(Nc1cccnc1)=C(C#N)C#N	7
CC1=C(C(=O)Nc2ccccc2)C(c2ccco2)NC(=O)N1 (stereo not given)	14
CCn1nnc(NC(=S)NC(=O)c2ccc(-c3cccc(Cl)c3)o2)n1	33
CCOC(=O)c1ccc(NC(=O)c2ccc(OC(C)C)c(OC)c2)cc1	15
CCCCC(=O)Nc1cccc(NC(=S)NC(=O)C(C)C)c1	10
COc1ccc(-c2nnc(Nc3ccc(CC(N)=O)cc3)c3ccccc23)cc1	14
O=C(CNC(=O)c1cccc(F)c1)N/N=C/C=C/c1ccccc1	13

Taken from the entries so far for reference:
SMILES	Calb biofilm kill
COc1ccc(-c2nnc(Nc3ccc(CC(N)=O)cc3)c3ccccc23)cc1	14
O=C(CNC(=O)c1cccc(F)c1)N/N=C/C=C/c1ccccc1	13

Pulled by compound from above, 2 records:
SMILES	Calb biofilm kill
Cc1csc(NC(=O)c2ccc(S(C)(=O)=O)cc2)n1	-5
O=C(CN1C(=O)C(=O)c2ccccc21)NC1CCCCC1	-5

Further compounds
SMILES	Calb biofilm kill
CC(C1CC1)N(Cc1ccccc1)C(=S)Nc1cccc(C(F)(F)F)c1 (stereo not given)	11
CCCCOC(=O)NC1(C)CCS(=O)(=O)C1 (stereo not given)	8
Nc1ccc(C(=O)Nc2ccco2)cc1	7
Cc1cccc(C)c1NC(=O)COC(=O)c1ccc(N2CCCC2)c([N+](=O)[O-])c1	9
O=C(CSc1nc2ccccc2s1)Nc1ccc(Cl)c(C(=O)O)c1	20
CCc1nc(CN2CCN(c3ccc(C(F)(F)F)cn3)CC2)c(C)[nH]1	13
COc1ccc(S(=O)(=O)Nc2cccc(F)c2C)cc1C(=O)N1CCOCC1	10
C/C(Cn1nnc2ccccc21)=N\NC(=O)c1ccc(Br)cc1	20
CC(C)C[C@H](NC(=O)c1[nH]cnc1C(=O)N[C@@H](C)c1ccccc1)C(=O)OCc1ccccc1	-2
CC(C)[C@H](NC(=O)C1CCCC1)c1nc2ccccc2[nH]1	15
CC(=O)N/C(=C/c1ccc(OS(=O)(=O)c2ccc(C)cc2)cc1)C(=O)Nc1ccc(C(=O)O)cc1	16
O=C(N/N=C/c1ccco1)c1cc(-c2ccc(Cl)cc2)n[nH]1	3
COCc1cc(N2CCOCC2)nc(-c2ccccc2)n1	16
CCN1CCN(CCCOc2ccccc2-c2ccccc2)CC1	13
CCOC(=O)/C(C#N)=C\c1c(OCC)n(CC)c2ccccc12	22
O=C(CSCc1ccc(F)cc1)NCc1ccc(F)cc1	10
Cc1ccc(C(=O)N/C(=C/c2ccco2)C(=O)NCCCn2ccnc2)cc1	2
COCC(C)n1c(SCC(=O)c2cc(C)n(C)c2C)nc2ccccc2c1=O (stereo not given)	14
CCCSc1nnc2[nH]c(=O)cc(N)n12	19
CCOc1cc(/C=C2/NC(=O)N(Cc3ccccc3F)C2=O)ccc1O	13
N/C(=N\OCC(=O)Nc1ccccc1)c1nonc1N	4
Cn1nc2c3ccccc3n(Cc3ccccc3)c2nc1=S	14
COc1ccc(N2CCN(C(=O)c3ccc(C)cc3)CC2)c([N+](=O)[O-])c1	11
CCOC(=O)c1ccc(N=c2sc(C(=O)OC)cc(=O)n2-c2ccc(C(=O)OCC)cc2)cc1	10
O=C(CCC(=O)OCC(=O)c1cccc([N+](=O)[O-])c1)NC1CCCCC1	19
O=C(CCN1CCN(CCO)CC1)Nc1ccc(Br)cc1	-10
CC(C)CC1(C(=O)NCCN2CCOCC2)C=CCN1C(=O)c1ccccc1 (stereo not given)	14
Cc1ccc(C)c2sc(N)nc12	17
CCCSc1nc2sc3c(c2c(=O)n1CC)CC(C)(C)OC3	30
COc1ccc(OC)c2c1sc(=NC(=O)C1COc3ccccc3O1)n2C (stereo not given)	15
Oc1[nH]c2ccccc2c1N=Nc1nc(Nc2ccccc2)nc(N2CCOCC2)n1	15
CN1C(=O)NC(c2ccc(O)cc2)C2=C1CN(c1ccccc1)C2=O (stereo not given)	15
CCCCc1c(O)nc(SCC(=O)c2ccccc2)n(-c2ccccc2)c1=O	9
CC1CCCC(C)N1/N=C/c1cc(Br)c(O)c(Br)c1 (stereo not given)	13
C/C(=N\NC(=O)C1(C)CC1(Br)Br)c1ccc(NC(=O)c2ccc(C)o2)cc1 (stereo not given)	9
Cc1ccc(CN2C(=O)N/C(=C\c3ccc(-c4ccc(C(=O)O)cc4C)o3)C2=O)cc1	21
O=c1c2cn[nH]c2nc(SCc2ccccc2F)n1-c1ccc(Br)cc1	10
O=C(COC(=O)CCc1ccccc1)NC(c1ccccc1)c1ccccc1	8
CC(C)(C)NC(=O)C(c1ccncc1)N(C(=O)Cn1nnc(-c2ccc(F)cc2)n1)c1cccc(F)c1 (stereo not given)	8
Cc1cc(N2CCCC2=O)cc(C)c1CN1C(=O)c2ccccc2C1=O	6
Cc1ccc(C2(c3noc(CN(C)CCCN4CCOCC4)n3)CCCC2)cc1	24
Cc1ccc(CC(=O)N2CCN(C(=O)c3ccco3)CC2)cc1	6
Cc1ccc(-n2cc(-c3ccccc3)c3c(N4CCN(C)CC4)ncnc32)cc1	13
CC(C)Cc1nnc(NC(=O)CSc2nc(O)c(-c3ccccc3)c(=O)[nH]2)s1	31
COc1ccc(CN2CCNC(=O)C2CC(=O)NCc2cnn(C)c2)cc1OC (stereo not given)	12
CCOC(=O)CC(NC(=O)c1ccccc1F)c1ccc(C)cc1 (stereo not given)	18
O=C(Cc1cccs1)N1CCN=C1SCc1ccccc1Cl	7
CCCc1cc(=O)n2[nH]c(NCc3ccc(OC)c(OC)c3)nc2n1	14
COC(=O)c1ccc(S(=O)(=O)NCc2ccc(S(N)(=O)=O)cc2)n1C	2
CCN1CCN(C(=O)c2ccc(-c3nc4ccccc4s3)s2)CC1	13
Cc1ccc(S(=O)(=O)n2ccc(OC(=O)c3cccs3)n2)cc1	15
COCCNC(=S)N1CCC(c2nc(-c3ccc(N(C)C)cc3)no2)CC1	12
COc1ccc(-n2cc(CNCC3CCOCC3)c(-c3cccc(F)c3)n2)cc1	29
CC(C)(C)[C@@H]1C=C(C(=O)N2CCN(Cc3ccc4c(c3)OCO4)CC2)O[C@H](OCc2ccc(CO)cc2)C1	21
CCOC(=O)N1CCN(C(=O)c2cnn3c(C(F)(F)F)cc(-c4cccs4)nc23)CC1	5
CCSc1nnc(NC(=O)c2nc3nc(C)cc(C)n3n2)s1	5
O=C(CN1CCCc2ccccc21)N/N=C/c1ccccc1O	18
COC(=O)C1C(O)=C(C(C)=Nc2cccc3ccccc23)C(=O)CC1(C)C (stereo not given)	18
C(=N\Nc1nc(N2CCCCC2)nc(N2CCCCC2)n1)/c1c[nH]c2ccccc12	13
O=C(O)c1ccc(COc2ccc3ccccc3c2/C=C2/NC(=O)N(Cc3ccc(F)cc3)C2=O)cc1	0

Some of the entries so far, in markdown.
| molecule | Calb biofilm kill |
| --- | --- |
| COc1ccc(CN2CCNC(=O)C2CC(=O)NCc2cnn(C)c2)cc1OC (stereo not given) | 12 |
| COC(=O)C1C(O)=C(C(C)=Nc2cccc3ccccc23)C(=O)CC1(C)C (stereo not given) | 18 |
| Cc1ccc(C2(c3noc(CN(C)CCCN4CCOCC4)n3)CCCC2)cc1 | 24 |
| CCN1CCN(C(=O)c2ccc(-c3nc4ccccc4s3)s2)CC1 | 13 |
| CCOC(=O)CC(NC(=O)c1ccccc1F)c1ccc(C)cc1 (stereo not given) | 18 |
| CCCc1cc(=O)n2[nH]c(NCc3ccc(OC)c(OC)c3)nc2n1 | 14 |

(further entries)
SMILES	Calb biofilm kill
COc1ccc(CC(=O)Nc2ccc(C(=O)Nc3nccs3)cc2)cc1OC	15
CC(=O)c1ccc(Nc2cc(C)nc3c(C)cc(C)cc23)cc1	8
O=C(CCc1c[nH]c2ccccc12)NCc1ccco1	15
N#Cc1c(Cn2cncn2)nc(=O)n(-c2ccc(Cl)cc2)c1N	-10
COc1ccc(C(=O)/C=C/c2ccc(N(C)C)cc2)c(OC)c1	13
CC(C)(O)C(=O)N=Nc1c(O)[nH]c2ccccc12	21
Fc1ccc(-c2cnn3c(-c4cccs4)ccnc23)cc1	15
OCCC1CN(Cc2nc3c(s2)CCCC3)CCN1Cc1ccsc1 (stereo not given)	30
